CatB mixtures – inhibitors of human cathepsin B in compound mixtures; P07858; Purified cathepsin B, AMC dipeptide fluorescence; inhibition, %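 (ten-compound pools at 5 µM per compound and 50 µM total)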; 62,000 tested, 0.06% active; AID 488; in the data active = inhibition above about 22%, passing the limit was not always enough;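 also: 0% = enzyme without compound and 100% = no enzyme blank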
CatS inh – blocks human cathepsin S protease activity; P25774; recombinant cathepsin S, AMC dipeptide fluorescence, pooled mixtures; inhibition, %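 (tested at 5 µM per compound within 10-compound mixtures)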; 62,000 tested, 0.06% active; in the data active = inhibition above about 32%, passing the limit was not always enough;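 also: 0% = enzyme without compound and 100% = blank without enzyme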
C1s block – human complement C1s inhibition. purified C1s, fluorogenic AMC substrate, pooled mixtures. P09871. 62,000 tested, 0.16% active. mean inhibition % of two 10-compound mixtures (active compounds read high), % at 5 µM (by protocol);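 active = inhibition above 20% in each of the two 10-compound mixture wells holding the compound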;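 also: 0% = enzyme wells lacking compound mixture and 100% = no-enzyme blank wells; some compounds called inactive have numbers as strong as hits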
A340 absorber – compounds absorbing at 340 nm | fold change at 10 µM | compound absorbance at 340 nm, fold over control | 65,000 tested, under 10 active | AID 708;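 active = at 10 µM dose, initial 340 nm absorbance at least 2 fold that of control wells; inactive = change under 2 fold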;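 also: initial absorbance extrapolated from kinetic A340 decline of NADH oxidation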
CatB block – blocks human cathepsin B protease activity. inhibition, %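 (tested at 10 µM)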. 63,000 tested, 0.1% active. AID 453. purified cathepsin B, fluorogenic substrate, fluorescence; in the data active = inhibition above about 21%;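 also: 0% = enzyme with no compound and 100% = no enzyme blank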
CatL inh – inhibitors of human cathepsin L; P07711; purified cathepsin L, fluorogenic substrate, fluorescence; inhibition, %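 (tested at 10 µM)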; 58,000 tested, 0.17% active; in the data active = inhibition above about 45%;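 also: 0% = enzyme with no compound and 100% = no enzyme blank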
Target sequence (P07711 114-288 limits assumed): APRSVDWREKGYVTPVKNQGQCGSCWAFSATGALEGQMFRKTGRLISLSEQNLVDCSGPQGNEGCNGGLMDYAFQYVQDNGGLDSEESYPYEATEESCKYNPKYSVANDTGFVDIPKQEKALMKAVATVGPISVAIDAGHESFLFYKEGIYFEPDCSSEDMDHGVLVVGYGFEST
Target sequence (P07711 292-333 limits assumed): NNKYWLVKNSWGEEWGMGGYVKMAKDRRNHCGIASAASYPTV
FXIa mix inh – inhibitors of human coagulation factor XIa, pooled mixtures | 62,000 tested, 0.19% active | inhibition, % at 5 µM | AID 680 | purified FXIa, fluorogenic substrate | P03951; in the data active = inhibition above about 20%, passing the limit was not always enough;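 also: each value is inhibition by a whole ten-compound pool holding the compound; 0% = enzyme with no mixture and 100% = wells lacking enzyme; strong numbers were not always called active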
CatG inh – blocks human cathepsin G enzyme activity; inhibition, % at 5 µM (by protocol); 62,000 tested, 0.2% active; purified enzyme, AMC-tetrapeptide fluorescence, pooled mixtures; P08311; AID 581;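 active = inhibition above 20% in each of the two mixture wells holding the compound; inactive = inhibition of 20% or less in either well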;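 also: 0% = enzyme control without mixture and 100% = blank lacking enzyme; strong numbers were not always called active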
Target sequence (P08311 21-244 limits assumed): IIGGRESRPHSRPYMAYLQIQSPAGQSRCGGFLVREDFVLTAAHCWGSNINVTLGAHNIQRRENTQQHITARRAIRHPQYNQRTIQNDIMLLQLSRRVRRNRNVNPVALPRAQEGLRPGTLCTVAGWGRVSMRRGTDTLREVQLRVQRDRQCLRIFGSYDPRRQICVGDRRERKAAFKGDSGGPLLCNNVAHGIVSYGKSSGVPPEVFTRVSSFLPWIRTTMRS
* hit, by the source's call; . = not tested or not shown. This is a subset; count on the stated rates, not on these rows.

SMILES | CatB mixtures | CatS inh | C1s block | A340 absorber | CatB block | CatL inh | FXIa mix inh | CatG inh
O=C1CCC(=O)N1c1cccc(-c2nc3ccccc3o2)c1 | -1 | -3 | -3 | 1 | 2 | -3 | 9 | 5
O=c1c2ccccc2nc(-c2ccccc2)n1CCCn1ccnc1 | 7 | 13 | -15 | 1.1 | 11 | 9 | 3 | -11
Cc1onc(-c2ccccc2)c1C(=O)N1CCc2ccccc21 | 1 | 4 | 6 | 0.99 | 0 | . | -1 | 8
COc1ccccc1NC(=O)C1=C(C)Nc2nnnn2C1c1cccc(C)c1 (centres undefined) | 5 | 1 | -26 | 1 | -3 | 1 | 7 | -3
CCCOc1ccc(Cc2nc(N)nc(N)n2)cc1 | 0 | 2 | -39 | 1 | 2 | -10 | -1 | -12
COc1cccc(C(=O)n2cnnc2N)c1OC | 3 | -2 | 10 | 0.98 | -1 | 1 | 6 | 17
CCNC(=O)CC1C(=O)N(c2ccc(OC)cc2)C(=O)N1Cc1ccc(OC)cc1 (centres undefined) | 4 | 0 | 15 | 0.96 | 3 | 7 | -6 | 12
O=C(Nc1ccncc1)c1ccccc1F | 3 | 10 | -17 | 1 | 4 | 9 | 1 | 8
Cc1ccc(C2/C(=C(/O)c3ccc(Br)cc3)C(=O)C(=O)N2Cc2ccco2)o1 (centres undefined) | 7 | 5 | -24 | 1.1 | -3 | 29 | 7 | 2
CCn1c(CNC(=O)c2ccc(OC)cc2)nnc1SC | 0 | 6 | 3 | 1 | -2 | 17 | -3 | 1
O=C(Nc1ccccc1C(=O)O)c1cccc(NC(=O)c2ccc(Br)o2)c1 | 1 | 10 | 13 | 1 | -6 | 20 | 9 | 11
CCOc1ccc(Cc2nc(N)nc(N)n2)cc1 | 4 | 1 | -5 | 1 | -1 | -1 | 2 | 4
CCn1c2ccccc2c2cc(NC(=O)COC(=O)C3CCC(=O)N3)ccc21 (centres undefined) | 0 | -8 | 11 | 1.1 | 3 | . | 7 | 8
O=C(c1ccc(Cn2cc(Br)cn2)o1)n1cccn1 | 3 | 3 | 16 | 1 | 5 | 10 | 11 | 12
CCOC(=O)C1CCN(Cc2coc3ccc(Cl)cc3c2=O)CC1 | 3 | -7 | 3 | 1.1 | 1 | . | 0 | 7
COc1ccc(NC(=O)c2nc[nH]c2C(=O)Nc2ccccc2C)cc1 | 2 | -1 | 21 | 1.1 | 3 | 2 | 4 | 9
Nc1nncn1C(=O)c1ccccc1Cl | 2 | 11 | 6 | 1 | 3 | 11 | -1 | 10
O=C(CSc1nc(-c2ccco2)cc(C(F)(F)F)n1)Nc1cccnc1 | -5 | 2 | -38 | 1.1 | 3 | 15 | -3 | 2
COC(=O)c1nc(NC(=O)c2ccc(Cl)cc2)n[nH]1 | 2 | -2 | 12 | 1 | 2 | -1 | 5 | 10
O=C(NCCCNCCCNC(=O)c1ccccn1)c1ccccn1 | 0 | -4 | -19 | 0.98 | 5 | -2 | -2 | -7

Profiles, quoted from the list. Order of values: CatB mixtures	CatS inh	C1s block	A340 absorber	CatB block	CatL inh	FXIa mix inh	CatG inh
Nc1nncn1C(=O)c1ccccc1Cl is listed as 2	11	6	1	3	11	-1	10
O=C1CCC(=O)N1c1cccc(-c2nc3ccccc3o2)c1 is listed as -1	-3	-3	1	2	-3	9	5
COc1ccc(NC(=O)c2nc[nH]c2C(=O)Nc2ccccc2C)cc1 is listed as 2	-1	21	1.1	3	2	4	9

New compounds follow.
SMILES | CatB mixtures | CatS inh | C1s block | A340 absorber | CatB block | CatL inh | FXIa mix inh | CatG inh
Cc1ccc(C(=O)NCCCN2CCOCC2)cc1N1CCCC1=O | 6 | -1 | 11 | 1 | -2 | -4 | 5 | 11
O=C1c2ccccc2C(=O)N1c1ccc(-c2nc3ccccc3o2)cc1 | 4 | -4 | 14 | 1.1 | 1 | 0 | 7 | 6
Cn1cnnc1SCc1ccc(C(=O)n2ncc(C#N)c2N)cc1 | -2 | -5 | -6 | 1 | 3 | 18 | 5 | 47*
Cc1onc(-c2ccccc2)c1C(=O)N1CCCc2ccccc21 | -1 | -9 | -2 | 1 | . | . | 7 | 9
CCOc1ccccc1C(=O)n1nc2nc(C)cc(C)c2c1N | -1 | -3 | -16 | 1 | 2 | 6 | -18 | 4
CCOc1ccccc1NC(=O)c1nc[nH]c1C(=O)Nc1ccccc1OCC | 0 | -4 | 5 | 1.1 | 3 | -13 | 5 | 6
COC(=O)c1ccc(C2/C(=C(/O)c3ccc(OC)cc3)C(=O)C(=O)N2CC2CCCO2)cc1 (centres undefined) | 3 | -1 | -40 | 1.1 | 3 | 6 | 8 | 4
Cc1cccc(N(CC(N)=O)C2SC(=O)N(c3ccccc3)C2=O)c1 (centres undefined) | 3 | -4 | -30 | 0.99 | 2 | 5 | 3 | 5
CN(C)Cc1cc(C(C)(C)C)c(O)c(C(C)(C)C)c1 | 2 | -4 | 0 | 1 | 3 | 1 | 5 | 0

4 entries already listed, sorted by length of the SMILES, rising.
SMILES | CatB mixtures | CatS inh | C1s block | A340 absorber | CatB block | CatL inh | FXIa mix inh | CatG inh
CCOc1ccccc1C(=O)n1nc2nc(C)cc(C)c2c1N | -1 | -3 | -16 | 1 | 2 | 6 | -18 | 4
CCOC(=O)C1CCN(Cc2coc3ccc(Cl)cc3c2=O)CC1 | 3 | -7 | 3 | 1.1 | 1 | . | 0 | 7
CCNC(=O)CC1C(=O)N(c2ccc(OC)cc2)C(=O)N1Cc1ccc(OC)cc1 (centres undefined) | 4 | 0 | 15 | 0.96 | 3 | 7 | -6 | 12
COC(=O)c1ccc(C2/C(=C(/O)c3ccc(OC)cc3)C(=O)C(=O)N2CC2CCCO2)cc1 (centres undefined) | 3 | -1 | -40 | 1.1 | 3 | 6 | 8 | 4

Screening results as filed in PubChem.
